Screens as filed in PubChem.
YopH inh = inhibitors of Yersinia enterocolitica YopH tyrosine phosphatase; fluorescence Ex485/Em525; inhibition, %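 (about 10 µM by stock and volumes)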; hit rate 0.16% among 140,000; AID 898;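 active = inhibition of 50% or more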;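 note: controls were vehicle for no effect and minimum signal wells for full effect; inactives centre near -20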
Mtb bLac sens = beta-lactam sensitization of Mtb H37Rv. M. tuberculosis H37Rv growth with meropenem, percent inhibition; hits of this screen are not shown here. inhibition, % at 25 µM. hit rate 0.27% among 330,000. AID 434955;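 active = about 74% or more and at least 40 points above the plate without the antibiotic, then above 30% in a dose series; inconclusive = first-round hits that could not be retested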;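 note: growth measured after seven days incubation then overnight dye step; 0% = bacteria only wells and 100% = bacteria with antibiotic; twin plates without the antibiotic show which effects depend on it; some results filed as inactive read as strong as hits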
Arbovirus inh = antivirals against arbovirus infection. arbovirus infection cell-based antiviral screen. inhibition, % at 10 µM. hit rate 0.37% among 200,000. AID 1251;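 active = inhibition from about 30%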;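 note: bluetongue infection of BSR cells; cell survival read as ATP light after 72 h; 0% = infected wells without compound and 100% = uninfected wells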
Mtb H37Rv = M. tuberculosis H37Rv growth inhibitors, H37Rv strain (AID 1626); M. tuberculosis H37Rv growth inhibition; higher % means a stronger effect; one-dose inhibition, % at 10 µM; IC50 in µM for titrated hits; hit rate 0.95% among 220,000;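 active = confirmed in a dose series; inconclusive = inhibition above 80% but not taken into the dose series; inactive = below 80% or under 30% at every dose of the series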;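 note: bacteria incubated seven days before Alamar blue readout; 0% = bacteria only wells and 100% = bacteria with antibiotic wells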
RecA splice inh = Mtb RecA intein splicing inhibition. cell-free RecA intein splicing, fluorescence. hit rate 0.75% among 290,000. inhibition, %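 (about 9 µM by stock and volumes)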. AID 2221; in the data active = inhibition above about 30%; inconclusive = no clear call, values can overlap the other calls;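 note: 0% = vehicle wells and 100% = reference inhibitor control wells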
Target sequence (P9WHJ3 whole entry, looked up, canonical isoform): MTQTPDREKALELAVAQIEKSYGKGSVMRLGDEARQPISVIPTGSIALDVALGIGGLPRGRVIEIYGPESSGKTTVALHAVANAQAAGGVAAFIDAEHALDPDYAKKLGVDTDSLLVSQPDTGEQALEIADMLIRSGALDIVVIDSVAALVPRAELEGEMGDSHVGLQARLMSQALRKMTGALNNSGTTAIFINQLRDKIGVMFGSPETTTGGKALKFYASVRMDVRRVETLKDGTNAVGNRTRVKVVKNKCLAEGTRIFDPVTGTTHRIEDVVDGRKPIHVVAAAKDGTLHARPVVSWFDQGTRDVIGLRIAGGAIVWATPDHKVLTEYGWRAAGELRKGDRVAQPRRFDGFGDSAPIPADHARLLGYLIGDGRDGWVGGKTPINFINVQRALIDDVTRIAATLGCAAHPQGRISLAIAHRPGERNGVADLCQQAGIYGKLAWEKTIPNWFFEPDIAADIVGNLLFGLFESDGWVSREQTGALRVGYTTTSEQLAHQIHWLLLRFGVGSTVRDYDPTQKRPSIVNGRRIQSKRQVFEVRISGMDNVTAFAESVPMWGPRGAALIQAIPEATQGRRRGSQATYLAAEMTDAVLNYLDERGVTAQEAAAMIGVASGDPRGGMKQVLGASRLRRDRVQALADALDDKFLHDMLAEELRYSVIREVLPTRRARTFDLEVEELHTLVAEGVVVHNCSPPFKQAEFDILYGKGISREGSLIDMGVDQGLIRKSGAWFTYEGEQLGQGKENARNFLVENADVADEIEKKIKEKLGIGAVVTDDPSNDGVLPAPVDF
Arbovirus inh repeat = second read-out of Arbovirus inh, no call of its own (marks repeat the call); inhibition, %; measured here: 10K subset replicate screen; many hits read low in the repeat;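 first of two repeat runs on a subset; 0% = infected and 100% = uninfected wells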
Starred values were filed as active, the others as inactive; ? = inconclusive; nt = no result given. This is a subset; the hit share may differ from the screen's.

SMILES	YopH inh	Mtb bLac sens	Arbovirus inh	Mtb H37Rv	RecA splice inh	others
O=C(COc1ccc(Cl)cc1Cl)NNC(=S)NCc1ccco1	nt	0	20	4%	8.7
N#CC1=C(N)OC2=C(C(=O)CCC2)C1c1ccsc1 (configuration not stated)	-45	-1	2	-3%	-1.0	Arbovirus inh repeat=3
CCN1CCN(C(=O)C2CCN(C(=O)c3cc4sccc4n3CC)CC2)CC1	-29	-1	-4	-4%	-1.5	Arbovirus inh repeat=3
CCCNC(=O)C1CC(=O)N(c2ccc(OCC(=O)Nc3cc(C)cc(C)c3)cc2)C1 (configuration not stated)	nt	-1	2	-2%	-1.3	Arbovirus inh repeat=-2
CCOc1ccc(NC(=O)CN(C)C(=O)CCNC(=O)c2ccc(Br)cc2)cc1OCC	nt	-8	nt	nt	-1.0
Nc1ccccc1SCC(=O)Nc1ccc(N2CCOCC2)cc1	-38	33	-17	-7%	2.9
Cc1ccc(C)c(S(=O)(=O)N2CCN(C(=O)C3CCN(C(=O)c4ccc(F)cc4)CC3)CC2)c1	nt	3	nt	nt	0.5
COc1cc2c(cc1OC)CN(CC(=O)Nc1ccc3c(c1)OC(F)(F)O3)CC2	-21	-13	10	nt	0.4
Cc1ccc2nc3c(c(C(=O)O)c2c1)CCC3	-35	-1	12	-4%	-0.5
Clc1ccc(-n2nnnc2-c2cnc(-c3ccncc3)nc2-c2cccs2)cc1	-13	4	-7	-4%	7.1
Cc1csc(NC(=O)CSc2ncn(-c3ccccc3)n2)n1	-8	-5	0	0%	3.6
CC(C)NS(=O)(=O)c1ccc(CCC(=O)Nc2ccc3c(c2)OCCO3)cc1	-12	2	-5	10%	-1.5
O=C(Cc1ccc(F)cc1)N1CCC(N2CCC(C(=O)N3CCOCC3)CC2)CC1	nt	-6	4	-3%	-1.2
CCOc1ccc(C(=O)Nc2cc3c(cc2N2CCCC2)n(CC)c(=O)n3CC)cc1OCC	nt	99	nt	nt	-0.4
COc1ccc(-n2c(SCC(=O)NCC3CCCO3)nc3ccccc32)cc1 (configuration not stated)	7	4	1	-11%	nt
Cn1c(=O)cc(OCC(=O)N2CCCc3ccccc32)c2ccccc21	-20	-9	-8	-3%	0.0
O=C(Nc1ccc(C#Cc2ccccc2)cc1)C1CC1	-39	74	-1	15%	3.7
COc1ccccc1C(CNC(=O)c1cc(C)nc2ccccc12)N(C)C (configuration not stated)	nt	4	nt	nt	-0.5
COc1cc(C=O)c(Br)cc1OCC(=O)NCCc1ccccc1	nt	-7	-7	8%	-1.4
CC1=NN(c2nc(-c3ccc(C)cc3)cs2)C(=O)C1N=Nc1ccccc1O (configuration not stated)	nt	59	-33	5%	3.1
O=C(CC(NS(=O)(=O)c1ccc(Cl)cc1)c1ccco1)NCc1cccnc1 (configuration not stated)	-43	16	5	-9%	-1.1
CN(C)S(=O)(=O)c1ccc(C(=O)N2CCN=C2SCc2cccnc2)cc1	-5	-4	5	1%	nt
O=C(CN(Cc1ccccc1)S(=O)(=O)c1ccc2c(c1)OCCO2)N/N=C/c1ccc(F)cc1	-3	-4	-23	-4%	16
Cc1[nH][nH]c(=O)c1C=NCc1ccc(Cl)cc1	nt	4	5	-3%	1.8
O=S(=O)(c1ccccc1)c1ccc(N2CCCCCC2)cc1	nt	1	nt	nt	6.0

(further entries)
SMILES	YopH inh	Mtb bLac sens	Arbovirus inh	Mtb H37Rv	RecA splice inh	others
Nc1nc(NC(=O)c2ccccc2Cl)nn1-c1ccccc1	nt	-2	nt	12%	nt
CCOC(=O)Nc1ccc2c(c1)N(C(=O)CN1CCN(CCO)CC1)c1ccccc1CC2	nt	-8	nt	nt	1.3
CCOC(=O)C1CCN(C(=O)Cn2cccc2C(=O)c2ccccc2)CC1	-7	-2	3	-8%	nt
CCOc1ccc(C(=O)/C=C/c2ccccc2C(F)(F)F)cc1	-48	19	-1	8%	-3.6
CCN(CC(=O)Nc1c(F)cccc1F)C(=O)CCc1ccc(OC)cc1	nt	2	6	5%	0.3
COc1ccc(C)cc1NC(=O)Nc1cnccn1	nt	-2	1	2%	0.1
CCC(C(=O)O)n1nnc(-c2ccc(OCc3ccccc3)c(OC)c2)n1 (configuration not stated)	nt	-2	nt	nt	-0.3
O=C(NC1CCCC1)c1cccnc1N1CCCCCC1	-54	9	2	9%	nt
CCOC(=O)c1oc2ccccc2c1CSc1nnc(-c2ccco2)o1	-29	-3	-3	0%	0.5
CCOC(=O)C1CCN(C(=O)COC(=O)c2ccc3[nH]c4c(c3c2)CCCC4)CC1	nt	-4	nt	nt	0.9
COc1cccc(/C=C2/SC(=O)N(C)C2=O)c1OCc1ccc(C(=O)O)cc1	nt	0	2	3%	nt
O=C(Nc1ccc(OC(F)(F)F)cc1)Nc1cccnc1	nt	-4	nt	-11%	0.6
CC1(C)CC(=O)c2cc(OCC(=O)NCCN3CCOCC3)ccc2O1	-17	-1	0	-8%	-7.0
CCOC(=O)C1(Cc2ccccc2)CCN(Cc2ccc(COC)o2)CC1	nt	-5	1	8%	4.8
CCOc1ccc(C(=O)Nc2ncccc2Cl)cc1	nt	-8	-7	-9%	1.5
CC(OC(=O)c1nsc(Cl)c1Cl)C(=O)NCc1cccs1 (configuration not stated)	-12	-5	-2	-14%	nt
COC(=O)C1=C(COc2ccc(F)cc2)NC(=O)NC1c1ccc(C)cc1C (configuration not stated)	-15	-7	-6	-1%	nt
COc1ccc(OC)c(-n2c(C)cc(/C=C3\C(=N)N4N=C(CC(=O)N5CCOCC5)SC4=NC3=O)c2C)c1	nt	-1	nt	nt	2.1
Cc1cc(NC(=S)N(CCCN2CCN(C)CC2)Cc2ccco2)ccc1Cl	nt	-1	-12	2%	-1.3
Cc1nn(C)c(Cl)c1CN1CCC(CO)(CC2CCCCO2)CC1 (configuration not stated)	nt	-9	0	50%	1.6
O=C(COC(=O)c1ccccc1)NCC1CCCO1 (configuration not stated)	-49	-12	11	-9%	2.8
O=C(CSc1cc(Cl)ccc1Cl)NCC1CCCO1 (configuration not stated)	8	1	-4	-6%	-0.5
COc1ccc(S(=O)(=O)CC(=O)c2cc3cccc(C)c3oc2=O)cc1	nt	7	nt	nt	1.6
O=C1CNC(=S)N1Cc1ccc(F)cc1	nt	?	nt	nt	9.1
CC(=O)c1ccc(N2CCN(c3ccc(S(=O)(=O)N4CCN(C)CC4)cn3)CC2)cc1	-13	-3	-5	-3%	-1.7

Remaining list, next part
SMILES	YopH inh	Mtb bLac sens	Arbovirus inh	Mtb H37Rv	RecA splice inh	others
COc1cc(OC)c(CN2CCCN(C)CC2)cc1Br	nt	2	nt	nt	-1.1
Cc1ccc(-c2csc(CC(N)=O)n2)cc1	nt	-8	13	-5%	0.0
O=C(C1CCCN(Cc2cccc(Cl)c2)C1)N1CCCCC1 (configuration not stated)	nt	8	nt	nt	2.9
COc1ccc(OC)c(CNc2c(C=O)c(=O)[nH]c3ccccc23)c1	nt	-1	nt	nt	-2.4
O=C(Nc1ccccc1-c1ccccc1)NC1CC2CCCC(C1)N2CCc1ccccc1 (configuration not stated)	-5	1	-10	15%	3.6
N#CC(Cc1ccccc1)(Cc1ccccc1)C(=O)NN	nt	-1	nt	nt	0.7
Cc1nc(N2CCNCC2)c2c3c(sc2n1)CCCC3	nt	-5	nt	nt	0.0
Cc1cc(NC(=O)CSc2nnc(COc3ccccc3)n2Cc2ccco2)no1	-2	-10	-3	-10%	1.1
O=Cc1c(NCCc2cccc(F)c2)c2ccccc2[nH]c1=O	nt	0	nt	nt	0.7
NS(=O)(=O)OCCCc1ccccc1	nt	-7	nt	nt	0.4
CCOc1ccc(Cl)cc1S(=O)(=O)N1CCC(C(=O)NCc2ccccn2)CC1	nt	0	nt	nt	0.2
CCC1(CC)Cc2ccccc2-c2nc(NCCO)[nH]c(=O)c21	-8	15	-16	1%	2.6
COC(=O)C1=C(C)NC(=O)CC1c1ccc(F)c(Br)c1 (configuration not stated)	-19	-3	0	14%	-0.5
c1coc(CNc2c3c(nc4ccccc24)CCC3)c1	-39	5	8	-9%	-19	Arbovirus inh repeat=3
C=CCOc1ccc(/C=C/C(=O)OCC(=O)NCC2CCCCC2)cc1	nt	-5	nt	nt	0.1
CCCN(CC(=O)Nc1ccccc1C)C(=O)c1ccc(=O)n(Cc2ccccc2)n1	nt	-4	nt	nt	-0.2
CC(=O)Nc1ccc(OC(=O)c2cccs2)cc1	6	-1	-2	8%	7.9
CCN(CC(=O)Nc1c(F)cccc1F)C(=O)c1cc2c(cc1Cl)N1CCCCCC1=NS2(=O)=O	nt	2	nt	nt	-2.2
Cc1ccc(C)c(Cn2nnc3c(=O)[nH]c(C4CCCN(C(=O)C5CCCCC5)C4)nc32)c1 (configuration not stated)	-12	65	-35	0%	1.9
O=C1CCC2(CC1)NC(=O)N(c1ccccc1)N2	nt	4	-33	?	-3.4
C=CCNc1nc(C(=O)OCC(=O)c2ccc(C)c([N+](=O)[O-])c2)cs1	nt	-1	nt	nt	1.7
N#Cc1c(N2CCCC(O)C2)nc(N)c2c(N)nc3c(c12)CC(=O)N3C12CC3CC(CC(C3)C1)C2 (configuration not stated)	-27	?	-31	-8%	30
COc1ccc(C(=O)N/N=C(/C)c2ccc(N3CCCCC3)cc2)cc1	-39	-8	-5	-8%	-2.1
COc1ccc2[nH]c3c(=O)n(CCc4ccccc4)cnc3c2c1	nt	-3	nt	5%	-0.7
O=C(CN1CCCC1)Nc1ccc(NC(=O)Nc2ccccc2Cl)cc1	-4	7	-21	5%	2.6

More structures:
SMILES	YopH inh	Mtb bLac sens	Arbovirus inh	Mtb H37Rv	RecA splice inh	others
Fc1ccc2nc(N3CCOCC3)sc2c1	nt	0	-3	4%	-1.6
COc1ccccc1OCC(=O)NCC1CCCN(C(=O)c2ccccc2SC)C1 (configuration not stated)	nt	8	nt	nt	0.2
CC(C)(C)C(=O)Nc1cccc(-c2cc(-c3c(Cl)cccc3Cl)no2)c1	nt	3	nt	15%	2.7
COC(=O)CC1C(=O)NCCN1C(=O)c1ccc(Cl)cc1 (configuration not stated)	nt	2	nt	nt	-7.7
c1cnc(N2CCN(c3cnccn3)CC2)nc1	nt	-2	1	9%	-2.6
Cc1ccc(S(=O)(=O)N2CCCCC2)cc1NC(=O)Cn1c(=O)cnc2ccccc21	nt	-3	7	4%	-3.7
Cc1ccccc1NC(=O)CSc1nnc(Cc2ccccc2)c(=O)n1N	nt	-11	nt	nt	0.8
Clc1cccc(Cl)c1-c1noc(-c2ccno2)n1	nt	8	nt	-22%	nt
CCCCCCCCCCCCOC(=O)C[N+](C)(C)C	nt	-4	nt	-5%	4.5
O=C(Nc1ccc(Cl)cc1)NC1CCCc2ccccc21 (configuration not stated)	-49	8	-17	-13%	0.4
COc1ccc(N2CCCC2)c(NC(=O)c2ccc(Br)o2)c1	nt	2	nt	nt	1.1
O=C(CCC(=O)Nc1ccccc1)NNC(=O)CCc1ccccc1	nt	-4	25	1%	-0.9
C/C(=N\Nc1ccc(S(=O)(=O)Nc2ccccc2)cc1[N+](=O)[O-])c1ccc(N2CCOCC2)cc1	nt	5	-13	8%	-1.7
c1ccc(-c2nc(-c3ccc(-c4ccon4)s3)no2)cc1	nt	1	nt	-5%	-2.1
CCc1ccc(CN2CCC(C(=O)Nc3ccc(Oc4ccccc4)nc3)CC2)o1	nt	66	nt	nt	1.4
Cc1c(C2C(C#N)=C(N)OC3=C2C(=O)CCC3)cnn1C (configuration not stated)	-13	7	5	3%	-1.2
Cc1nn(CC(=O)NCc2ccccc2)c(=O)c2cccn12	nt	-6	nt	nt	2.3
CSc1ncccc1C(=O)OCc1nc2ccsc2c(=O)[nH]1	nt	-5	nt	nt	-2.7
Cc1csc(Nc2ccccc2)[n+]1C	nt	2	-20	5%	-1.7
CCN(CC)S(=O)(=O)c1ccc(OCC(=O)NCc2ccco2)cc1	nt	1	nt	5%	1.1
CCC1CCCCN1C(=O)NC(=O)c1ccccc1 (configuration not stated)	nt	-9	nt	nt	1.8

Among those listed so far, 8 contain an NH in an aromatic ring.
SMILES	YopH inh	Mtb bLac sens	Arbovirus inh	Mtb H37Rv	RecA splice inh	others
Cc1[nH][nH]c(=O)c1C=NCc1ccc(Cl)cc1	nt	4	5	-3%	1.8
CCOC(=O)C1CCN(C(=O)COC(=O)c2ccc3[nH]c4c(c3c2)CCCC4)CC1	nt	-4	nt	nt	0.9
COc1ccc(OC)c(CNc2c(C=O)c(=O)[nH]c3ccccc23)c1	nt	-1	nt	nt	-2.4
O=Cc1c(NCCc2cccc(F)c2)c2ccccc2[nH]c1=O	nt	0	nt	nt	0.7
CCC1(CC)Cc2ccccc2-c2nc(NCCO)[nH]c(=O)c21	-8	15	-16	1%	2.6
Cc1ccc(C)c(Cn2nnc3c(=O)[nH]c(C4CCCN(C(=O)C5CCCCC5)C4)nc32)c1 (configuration not stated)	-12	65	-35	0%	1.9
COc1ccc2[nH]c3c(=O)n(CCc4ccccc4)cnc3c2c1	nt	-3	nt	5%	-0.7
CSc1ncccc1C(=O)OCc1nc2ccsc2c(=O)[nH]1	nt	-5	nt	nt	-2.7
